# Screens deposited in PubChem by National Center for Advancing Translational Sciences (NCATS).
# A647 autofl – compound autofluorescence in A647 spectral region; Compound fluorescence, A647 channel (570/671 nm), Tris buffer; max dye-equivalent concentration, M; 59,000 tested, under 10 active; AID 592; active means above 1 µM dye equivalent; inconclusive means 0.1 to 1 µM; inactive means 0.1 µM or less;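 further: values scaled relative to a standard on each plate; highest value over a series up to 38 µM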
#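 Buffer was dispensed, compounds and Alexa 647 standards were pin-transferred, and plates sat 15 min at room temperature. Intensity at 570/671 nm was then converted to dye-equivalent concentration using the plate's A647 standard curve.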
# A488 autofl – A488 region autofluorescence | compound autofluorescence, A488 spectral region, dye equivalency; hits give high values | max dye equivalency, M | 59,000 compounds, 0.1% hits; active = above 10 nM dye equivalent; inconclusive = 1 to 10 nM; inactive = 1 nM or less; about half of its hits are not listed in these tables;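 further: highest value over a series up to 38 µM; compound alone in buffer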
#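 Compounds pin-transferred into 100 mM Tris buffer, pH 8.0, incubated 15 min at room temperature, then imaged with 480 nm excitation/540 nm emission filters. Fluorescence converted to Alexa 488 dye-equivalent concentration via an on-plate six-point A488 standard curve.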
# Resorufin fluor – resorufin region autofluorescence; Compound fluorescence, resorufin region 547/598 nm, buffer; hits give high values; max dye-equivalent concentration, M; 59,000 compounds, 0.04% hits; active = above 10 nM dye equivalent; inconclusive = 1 to 10 nM; inactive = 1 nM or less; a few of its hits are not listed in these tables; further: highest value over a series up to 38 µM
#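 Intrinsic fluorescence profiled in the resorufin window (ex 547 nm, em 598 nm) after 15 min at room temperature in pH 8.0 Tris buffer (100 mM); responses normalized against a six-point resorufin standard series as dye-equivalent concentration.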
# TSHR ag – TSH receptor (human) agonism; Potency, µM (highest dose often 57.1 µM), inactives show at the highest dose activation, most hits filed as activators; P16473; 73,000 compounds, 0.48% hits; HEK293-CNG-TSHR cells (CNG channel as cAMP sensor), membrane potential dye, cAMP; active = well fitted activation curve of enough size with the parental cells flat; inconclusive = any curve in the parental cells; inactive = parental cells flat and receptor cells flat or falling; further: potency means the concentration at half of the fitted maximal effect; % of control where 0% means no effect; weak receptor curves with flat parental cells got no call and are not listed
# Target sequence (P16473 whole entry, looked up): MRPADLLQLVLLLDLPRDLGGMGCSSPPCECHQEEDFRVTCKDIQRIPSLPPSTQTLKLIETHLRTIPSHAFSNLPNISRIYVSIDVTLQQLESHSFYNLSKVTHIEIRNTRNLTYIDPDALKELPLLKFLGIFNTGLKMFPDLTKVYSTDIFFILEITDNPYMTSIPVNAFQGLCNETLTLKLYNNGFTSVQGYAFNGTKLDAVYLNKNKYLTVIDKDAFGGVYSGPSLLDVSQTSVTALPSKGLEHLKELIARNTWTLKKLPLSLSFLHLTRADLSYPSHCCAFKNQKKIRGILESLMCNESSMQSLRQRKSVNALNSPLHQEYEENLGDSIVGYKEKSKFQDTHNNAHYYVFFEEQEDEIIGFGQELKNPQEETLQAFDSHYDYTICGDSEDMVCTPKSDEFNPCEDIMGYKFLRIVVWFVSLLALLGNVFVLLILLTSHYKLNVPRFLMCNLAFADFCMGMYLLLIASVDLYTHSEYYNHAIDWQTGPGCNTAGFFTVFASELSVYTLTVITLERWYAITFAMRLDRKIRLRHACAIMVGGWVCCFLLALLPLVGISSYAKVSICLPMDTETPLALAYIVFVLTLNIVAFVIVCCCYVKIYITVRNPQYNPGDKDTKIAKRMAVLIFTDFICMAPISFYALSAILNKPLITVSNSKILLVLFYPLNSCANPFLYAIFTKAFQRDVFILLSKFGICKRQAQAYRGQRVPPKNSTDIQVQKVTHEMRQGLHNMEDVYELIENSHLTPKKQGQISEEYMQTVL
#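 cAMP rise detected as CNG-channel membrane depolarization by fluorescent dye (emission 590 nm), 30 min after compound, following 60 min dye loading containing 100 uM RO 20-1724 at room temperature. Cells: TSHR/CNG HEK 293, with parental CNG HEK 293 as control.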
# AID923 – qHTS Assay for Allosteric/Competitive Inhibitors of Caspase-1: Spectroscopic Profiling in AFC Spectral Region | AID 923, 2007 | Potency, µM (titrated, usually from 57.5 µM), for the others: top-dose fluorescence increase, hits mostly activators | compound fluorescence, AFC spectral region (405/520 nm); almost no hit is shown here | 75,000 compounds, 1.1% hits; active means well fitted activation curve with a large enough effect; inconclusive means small, poorly fitted or top-dose-only effect;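 further: potency means the concentration at half of the fitted maximal effect; 0% is about no effect; scaled to a free AFC standard on each plate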
#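 Baseline compound fluorescence (AFC region, 405 nm ex/520 nm em) taken from the intercept of kinetic reads with 50 nM caspase-1 and 5 uM Ac-WEHD-AFC; normalized to an on-plate AFC standard curve; compounds titrated up to 57 uM.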
# The depositor's hits bear a star; i = inactive; ? = inconclusive; . = no result given; [ ] = another dose, or the depositor's remark.
SMILES,A647 autofl,A488 autofl,Resorufin fluor,TSHR ag,AID923
O=C(Nc1nccs1)c1cnccn1,4.93e-08,i,i,-2.4%,-1.3%
Cn1c(=O)c(-c2ccccc2)nn2c3ccccc3nc12,1e-09,i,i,-3.2%,6.0%
Cc1c(O)c(CN2CCCC2)cc2c1oc(=O)c1ccccc12,1.14e-08,i,i,.,.
Cc1ccc(C(=O)N2CCN(c3ccc(NC(=O)c4cccnc4)cc3)CC2)cc1,1e-09,i,i,-16.0%,0.7%
O=C(NO)c1ccccc1O,1e-09,i,i,.,.
CCn1c(SCC(=O)OCc2ccccc2)nc2c1c(=O)n(C)c(=O)n2C,6e-09,i,i,-2.8%,-0.8%
COc1ccccc1CNC(=O)CCS(=O)(=O)c1cccs1,1e-09,i,i,2.3%[11.4 µM],-0.3%
Cc1cc(C)nc(SCC(=O)Nc2ncc3c(n2)CCCC3=O)n1,8.2e-09,i,i,5.6%,1.0%
O=C(c1cnccn1)N1CCC[C@@]2(CCN(c3ccccn3)C2)C1,1e-09,i,i,?,1.9%
C=CCOc1ccc(/C(CC)=N/O)c(OC)c1,.,.,.,-9.1%,1.3%
COC(=O)COc1ccc(S(=O)(=O)N2CCN(c3ccccc3F)CC2)cc1C,4.1e-08,i,i,?,-2.1%
Cc1ccccc1NC(=O)c1cnn(-c2ccccc2)c1NC(=O)c1ccco1,.,.,.,9.1%,-0.3%
O=C1[C@H]2[C@H]3[C@H](O)[C@H](O)C/C(=N/OCc4ccccc4)[C@@H]3CC[C@@H]2C(=O)N1Cc1ccccc1,.,.,.,-6.1%[11.4 µM],0.2%[11.5 µM]
Cc1ccccc1C=O,.,.,.,?,1.0%
CCOC(=O)CSc1nnc([C@@H](NC(=O)OC(C)(C)C)C(C)C)o1,2.73e-08,i,i,3.5%,0.8%
CCOC(=O)N1CCN(C(=O)c2ccc3c(c2)ncn3C2CCCC2)CC1,1.2e-09,i,i,-4.8%,-1.7%
Cc1ccnc(N)c1,.,.,.,4.8%,-2.1%
O=C(Nc1cccc(Cl)c1)OCc1ccccn1,2.59e-08,i,i,6.7%[11.4 µM],-2.8%
CCOC(=O)C1CCN(c2c(NCCCN(CC)c3ccccc3)c(=O)c2=O)CC1,4.3e-08,i,i,?,0.1%
O=C(NCCN1CCN(c2ccccc2F)CC1)C1CC(=O)N(C2CCCC2)C1 (configuration not stated),1.2e-09,i,i,-1.1%,-1.1%
CCC(C)(C)n1nnnc1C(c1ccc(OC)c(OC)c1)N1CCN(c2ccccc2)CC1 (configuration not stated),1.48e-08,i,i,?,-0.6%
CCC[C@@H]1C[C@@]1(CCC)C(NC(=O)c1cccs1)c1ccc(Cl)cc1 (some centres not stated),.,.,.,?,-0.8%
Cc1noc(/C=C/N(C)C)c1S(=O)(=O)N1CCCC(C(=O)N2CCc3ccccc32)C1 (configuration not stated),.,.,.,-5.9%,0.8%
Cc1ccc(-c2noc(CCC(N)=O)n2)cc1,1e-09,i,i,1.3%,-1.4%
O=C(Nc1nccs1)c1cc(S(=O)(=O)N2CCOCC2)ccc1Cl,.,.,.,0.2%,1.0%
FC(F)(F)c1ccccc1-c1cncnc1NCc1ccccc1,5.7e-09,i,i,29.4%,7.0%
Cc1c(Nc2ncccc2C(=O)O)cccc1C(F)(F)F,1e-09,i,i,.,-1.1%
CCCN(C(=O)Cc1nc(N)n[nH]1)C1(C(=O)Nc2c(C)cccc2C)CCCCC1,2.64e-08,i,i,-5.5%[11.4 µM],0.3%
CC1(C)Cc2nc3sc4c(SCC(=O)NCc5ccco5)ncnc4c3cc2CO1,5.7e-09,i,i,5.1%,0.8%
CCOC(=O)CCSc1nc2c(c(C(F)(F)F)c1C#N)CCC2,1e-09,i,i,?,-2.1%
NC(=O)c1c(N)sc2c1CCCC2,4.1e-09,i,i,1.4%,3.6%
CC(Sc1nc(N2CCOCC2)nc(N2CCOCC2)n1)C(=O)Nc1ccccc1 (configuration not stated),3.81e-08,i,i,-10.4%,1.5%
O=C(Nc1ccc(N2CCCCC2)cc1)c1ccc(F)cc1,2.12e-08,i,i,-7.1%,1.5%
COC(=O)[C@@]1(Cc2ccc(F)cc2)[C@H]2c3cc(C(=O)N(C)C)n(Cc4ccc(C)o4)c3C[C@H]2CN1C(=O)c1ccccc1,.,.,.,?,0.6%
O=C(NCc1ccc2c(c1)OCO2)c1ccncc1,1e-09,i,i,8.8%,1.3%
CCC1(c2cccc(Cl)c2)NC(=O)N(Cc2cc(C(=O)OC)c(C)o2)C1=O (configuration not stated),1.26e-08,i,i,.,0.7%
COc1cc2[nH]c3c(=O)n(CCN(C(C)C)C(C)C)cnc3c2cc1OC,1.7e-09,i,i,.,.
CCC(Sc1nc(C)cc(=O)[nH]1)C(=O)Nc1nnc(C)s1 (configuration not stated),1e-09,i,i,-1.2%,-0.8%
CC(=O)c1cccc(NC(=O)C2CCN(S(=O)(=O)c3ccc(F)cc3)CC2)c1,.,.,.,-3.3%,1.1%
Oc1ccc(CNc2ccccc2F)c2cccnc12,1.1e-09,i,i,0.9%,-0.4%
COc1ccc(C2=[N+]([O-])C(C)(C)N(O)C2(C)C)cc1,.,.,.,0.0%,0.4%
COc1ccccc1OCC(O)Cn1nc(C)cc1C (configuration not stated),3.04e-08,i,i,?,-0.9%
CCOC(=O)CN1CC23C=CC(O2)C(C(=O)NCc2ccc(F)cc2)C3C1=O (configuration not stated),.,.,.,5.4%,3.4%
CCOc1cc2[nH]c(=O)n(CCCCC(=O)N3CCCCCC3)c(=O)c2cc1OCC,1e-09,i,i,?,0.9%
CCCCC(=O)Nc1cc(N(C)C)nc2ccccc12,1.01e-08,i,i,?,1.8%
CC(=O)c1ccc(C2C=CC(Oc3ccc(F)cc3C)C(CO)O2)cc1 (configuration not stated),.,.,.,-5.4%[11.4 µM],0.7%[11.5 µM]
COC(=O)c1sc(NC(=O)c2cc3c(s2)CCCC3)nc1C,8.2e-09,i,i,6.0%,2.5%
O=C(Nc1cccc(F)c1)N1CCCC2(CCN(S(=O)(=O)c3ccccc3)CC2)C1,1e-09,i,i,?,1.2%
N#CCCn1ncn(-c2ccccc2)c1=S,5e-09,i,i,-15.8%,0.4%
COc1ccc(-c2cc(C(F)(F)F)nc(SCCC(=O)Nc3cc(C)on3)n2)cc1,1.5e-09,i,i,?,1.1%
O=C1CCC(=O)N1CN(C(=O)c1ccco1)c1ccc(Cl)c(Cl)c1,1.43e-08,i,i,.,.
CSc1nsc(SC)c1C(=O)NCCNS(=O)(=O)c1ccc(C)cc1,6.43e-08,i,i,5.7%,0.4%
COCCCn1c(SCC(=O)Nc2cccc(C)n2)nnc1-c1ccco1,3.77e-08,i,i,-5.0%,-0.1%
CCN(CC)S(=O)(=O)c1ccc2[nH]cc(C(=O)NCCc3ccccc3)c(=O)c2c1,2e-09,i,i,6.5%,1.1%
Cn1c2c(c(=O)n(C)c1=O)CN(Cc1ccc3c(c1)OCO3)CN2,3.7e-09,i,i,13.3%,0.8%
COC(=O)[C@@]1(Cc2ccc(OC)cc2)[C@@H]2C(=CC(=O)[C@H]2CC(=O)C(=O)N2CCCC2)CN1C(=O)c1ccccc1,.,.,.,1.4%,0.1%
CCc1sc(C(=O)NCc2cc(C)n(C)n2)cc1Br,.,.,.,13.6%,-1.2%
CCOC(=O)CC(=O)CSc1nc2ccc(C)cc2cc1C#N,1.76e-08,i,i,-6.3%,11.2%
O=C1CCC2CCCCC2(O)O1 (configuration not stated),1e-09,i,i,.,1.6%
COC(=O)N1CCC2(CCN(Cc3ccc(C#N)cc3)CC2)CC1,1.45e-08,i,i,3.4%,-1.8%
# Next part
SMILES,A647 autofl,A488 autofl,Resorufin fluor,TSHR ag,AID923
COc1ncc2nc(-c3ccc(F)cc3)c(=O)n(Cc3ccc(F)cc3)c2n1,1e-09,i,i,-6.9%,20.6%
CCCCOC(=O)CSc1nnc(-c2ccc(Cl)cc2Cl)o1,5.3e-09,i,i,1.9%,-1.0%
c1ccc(Nc2ncnc3ccc(-c4cccnc4)cc23)cc1,2.4e-09,i,i,5.3%,1.9%
O=C(NCc1ccc(F)cc1)C1CC(=O)N(CCc2ccccc2)C1 (configuration not stated),1.6e-09,i,i,3.3%,-0.2%
CCOC(=O)NC(Nc1sc2c(c1C(N)=O)CCCC2)(C(=O)OCC)C(F)(F)F (configuration not stated),1e-09,i,i,.,.
CCCn1c(C)nc2c(NC3CCCCC3)nc(C)nc21,.,.,.,24.3%,0.1%
CCOC(=O)c1cnn2c(C(F)F)cc(C3CC3)nc12,1e-09,i,i,1.1%,-0.4%
CCOc1ccccc1OCC(=O)O,8.3e-09,i,i,-2.0%,-0.9%
O=c1[nH]c(SCc2cc(=O)n3ccccc3n2)nc2c1CCC2,1e-09,i,i,4.5%[11.4 µM],-0.3%
CC(C)(C)c1ccc(-c2nnc(SCc3ccc(Cl)cc3)n2-c2cccc(C(F)(F)F)c2)cc1,2.39e-08,i,i,-0.2%[11.4 µM],0.5%[11.5 µM]
CCn1c(SCC(=O)Nc2cc(C)on2)nc2sc3c(c2c1=O)CCCC3,3.48e-08,i,i,13.7%,2.5%
CCN(CC)C(=O)N1CCC(NC(=O)c2ccc(C(C)(C)C)cc2)CC1,2.2e-09,i,i,?,-1.8%
CC(NC(=O)c1ccc(Cl)cc1)C(=O)NC1=NCCS1 (configuration not stated),1e-09,i,i,3.7%[11.4 µM],-0.6%
Cn1cc(Br)c(C(=O)NC2CCCCC2)n1,1e-09,i,i,2.8%,-1.5%
Nc1c(OCC(=O)O)ccc2cc(S(=O)(=O)O)ccc12,1.03e-08,i,i,-5.8%[11.4 µM],-2.3%[11.5 µM]
CCOC(=O)c1c(C)oc2c1c(C(c1ccncc1)N1CCOCC1)c(O)c1ccccc12 (configuration not stated),7.8e-09,i,i,4.8%,0.4%
Cc1ccc(-n2[nH]c(C)c(/C=N/c3ccccn3)c2=O)cc1,1.17e-08,i,i,?,-1.1%
O=C(NCC(c1cccnc1)N1CCN(c2ccccc2F)CC1)OCc1ccccc1 (configuration not stated),1e-09,i,i,16.2%,0.0%
CN(C)c1ccc(NC(=O)CN2CCC(C(=O)c3ccc(F)cc3)CC2)cc1,3.4e-09,i,i,4.1%,-0.1%
Cc1ccc(S(=O)(=O)N2CCN(C(=O)CN3CCc4ccccc4C3)CC2)cc1,5.1e-09,i,i,?,-1.1%

# Some of the entries so far, with two lines to a compound.
# Order of values: A647 autofl | A488 autofl | Resorufin fluor | TSHR ag | AID923
O=C1CCC2CCCCC2(O)O1 (configuration not stated)
→ 1e-09 | i | i | . | 1.6%
COC(=O)N1CCC2(CCN(Cc3ccc(C#N)cc3)CC2)CC1
→ 1.45e-08 | i | i | 3.4% | -1.8%
COc1ncc2nc(-c3ccc(F)cc3)c(=O)n(Cc3ccc(F)cc3)c2n1
→ 1e-09 | i | i | -6.9% | 20.6%
CCCCOC(=O)CSc1nnc(-c2ccc(Cl)cc2Cl)o1
→ 5.3e-09 | i | i | 1.9% | -1.0%
c1ccc(Nc2ncnc3ccc(-c4cccnc4)cc23)cc1
→ 2.4e-09 | i | i | 5.3% | 1.9%

# The list goes on:
SMILES,A647 autofl,A488 autofl,Resorufin fluor,TSHR ag,AID923
CN(C)C(=O)c1ccc(-c2cncnc2Nc2ccc(F)cc2)cc1,2.1e-09,i,i,?,4.8%
O=C(CSc1nnc(Cc2cc(=O)[nH]c(=O)[nH]2)n1-c1ccccc1)N1CCCC1,5.04e-08,i,i,5.9%,0.1%
O=C(c1ccco1)N1CCN(S(=O)(=O)c2ccc3c(c2)CCN3C(=O)C2CC2)CC1,1.18e-08,i,i,8.8%,-1.4%
COc1cc(C(=O)OCC(=O)c2c[nH]c3ccccc23)ccc1OCC(=O)N1CCOCC1,5.7e-09,i,i,-16.8%,-0.3%
C=COCCNC(=O)Nc1ccc(Cl)cc1Cl,1e-09,i,i,3.0%,1.3%

# A portion of the library (hit frequency here may not be typical).
